Mtb betalactam = beta-lactam sensitization of Mtb H37Rv | inhibition, % at 25 µM | M. tuberculosis H37Rv growth with meropenem, percent inhibition; hits of this screen are not shown here | 330,000 compounds, 0.27% hits;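 active means about 74% or more and at least 40 points above the plate without the antibiotic, then above 30% in a dose series; inconclusive means first-round hits that could not be retested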;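 further: growth measured after seven days incubation then overnight dye step; 0% = bacteria only wells and 100% = bacteria with antibiotic; twin plates without the antibiotic show which effects depend on it; some results filed as inactive read as strong as hits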
RecA splice inh = blocks M. tuberculosis RecA intein splicing; P9WHJ3; cell-free RecA intein splicing, fluorescence; inhibition, %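 (about 9 µM by stock and volumes)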; 290,000 compounds, 0.75% hits; AID 2221; in the data active means inhibition above about 30%; inconclusive means no clear call, values can overlap the other calls;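 further: 0% = vehicle wells and 100% = reference inhibitor control wells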
Target sequence (P9WHJ3 whole entry, looked up, canonical isoform): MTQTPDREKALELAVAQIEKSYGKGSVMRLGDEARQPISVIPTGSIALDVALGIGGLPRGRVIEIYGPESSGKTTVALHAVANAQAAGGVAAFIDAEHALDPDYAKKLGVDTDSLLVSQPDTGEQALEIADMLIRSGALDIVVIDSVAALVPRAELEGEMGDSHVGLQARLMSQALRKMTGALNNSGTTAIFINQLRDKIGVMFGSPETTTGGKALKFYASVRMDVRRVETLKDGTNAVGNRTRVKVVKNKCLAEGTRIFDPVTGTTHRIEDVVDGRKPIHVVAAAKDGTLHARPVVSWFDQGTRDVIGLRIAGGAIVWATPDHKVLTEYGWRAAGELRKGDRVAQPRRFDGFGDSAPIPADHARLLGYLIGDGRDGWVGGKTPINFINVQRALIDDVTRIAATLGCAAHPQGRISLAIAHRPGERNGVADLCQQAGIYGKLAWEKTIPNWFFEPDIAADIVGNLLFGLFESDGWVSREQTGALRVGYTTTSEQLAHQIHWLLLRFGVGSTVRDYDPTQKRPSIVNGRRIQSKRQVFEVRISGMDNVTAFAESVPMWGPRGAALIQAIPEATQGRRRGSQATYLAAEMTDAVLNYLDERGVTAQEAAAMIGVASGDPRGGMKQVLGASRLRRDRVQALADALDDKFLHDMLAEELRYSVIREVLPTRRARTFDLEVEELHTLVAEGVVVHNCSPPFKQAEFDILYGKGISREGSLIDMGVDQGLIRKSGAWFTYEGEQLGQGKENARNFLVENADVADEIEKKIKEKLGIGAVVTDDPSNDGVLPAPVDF
Arbovirus inh = arbovirus infection inhibition. inhibition, % at 10 µM. arbovirus infection cell-based antiviral screen. 200,000 compounds, 0.37% hits;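 active means inhibition from about 30%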;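 further: bluetongue infection of BSR cells; cell survival read as ATP light after 72 h; 0% = infected wells without compound and 100% = uninfected wells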
YopH inh = blocks Yersinia enterocolitica YopH tyrosine phosphatase | inhibition, %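 (about 10 µM by stock and volumes)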 | AID 898 | fluorescence Ex485/Em525 | 140,000 compounds, 0.16% hits;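 active means inhibition of 50% or more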;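 further: controls were vehicle for no effect and minimum signal wells for full effect; inactives centre near -20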
Mtb growth = M. tuberculosis H37Rv growth inhibitors, H37Rv strain (AID 1626); 220,000 compounds, 0.95% hits; M. tuberculosis H37Rv growth inhibition; higher % means a stronger effect; inhibition, % at 10 µM; hits with a dose series show IC50 in µM;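 active means confirmed in a dose series; inconclusive means inhibition above 80% but not taken into the dose series; inactive means below 80% or under 30% at every dose of the series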;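 further: bacteria incubated seven days before Alamar blue readout; 0% = bacteria only wells and 100% = bacteria with antibiotic wells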
Arbovirus inh repeat = also measured in Arbovirus inh; calls as there; inhibition, %; measured here: 10K subset replicate screen; many hits read low in the repeat;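 first of two repeat runs on a subset; 0% = infected and 100% = uninfected wells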
An asterisk follows results filed as active; ? = inconclusive; . = no result given.

SMILES	Mtb betalactam	RecA splice inh	Arbovirus inh	YopH inh	Mtb growth	others
Cc1ccc(C(=O)NCc2cccs2)cc1S(=O)(=O)N1CCCCC1	4	-1.3	2	-26	-26%
O=C(NCc1cc(C(F)(F)F)cc(C(F)(F)F)c1)C1CC(c2ccc(C(F)(F)F)cc2)=NO1 (stereo not given)	1	-4.1	.	.	-3%
CCOC(=O)c1sc(NC(=O)CSc2nc(O)c(Cc3ccccc3)c(=O)[nH]2)nc1C	5	.	6	.	.
Nc1cc(C(F)(F)F)ccc1-n1cccc1	-1	-1.0	0	.	-5%
CCc1cccc(CC)c1NC(=O)COn1nnc2ccc(C(F)(F)F)cc21	7	-1.9	0	-23	-7%
Cc1ccc2c(c1)C(=O)C(=O)N2CCCOc1ccccc1C	-2	-2.3	-8	.	-3%
CN(C)C(C(=O)Nc1cc(Cl)cc(Cl)c1)c1ccccc1 (stereo not given)	-6	.	1	.	9%
O=S(=O)(NCc1cccnc1)c1ccc2ccccc2c1	4	-1.5	.	.	.
Cc1ccc(CNc2nc(Cl)c(C#N)s2)cc1	6	-0.5	13	.	10%
Cc1cccc(-n2nc3c([n+]2[O-])CCc2nonc2-3)c1C	1	-1.5	-3	-20	-13%
CC(/C=N\N1CCN(c2ccc(Cl)cc2)CC1)=C\c1ccccc1	17	2.9	-2	-38	0%
CCOC(=O)N1CCN(C(=O)CCn2c(=S)[nH]c3ccccc3c2=O)CC1	1	1.9	.	.	.
COc1ccc(CN(CC(=O)NC2CCCC2)C(=O)c2ccc(-c3ccccc3)[nH]2)cc1	5	0.0	-7	.	5%
O=C(Cn1cnc2c(cnn2-c2ccc(F)cc2)c1=O)N1CCCc2ccccc21	-5	-0.3	12	-33	3%
CN(C)C(=O)c1c([N+](=O)[O-])ncn1C	1	-1.5	9	-9	-3%
CCOc1c(N2CCOCC2)c(=O)c1=O	-3	-4.5	.	.	-1%
CCCCC(=O)Nc1ccc2c(c1)nc1n2CCSC1	8	1.7	-1	-30	-9%
CC(C)(C)c1nn(-c2ccccc2)c2[nH]c(=O)c(C=O)cc12	-3	-1.6	.	.	.
CC(NC(=O)c1ccc(S(=O)(=O)N(C)C)cc1)c1ccccc1 (stereo not given)	-8	.	-3	-2	-8%
CN(C)c1ccc2c(c1)Sc1cc(N(C)C)ccc1N2C(=O)c1ccccc1	18	9.9	.	.	3%
O=C(CN1CCN(c2ccccn2)CC1)Nc1cccc(F)c1	-6	3.4	.	.	.
O=C(c1cc(=O)c2ccccc2o1)N1CCN(c2ccccc2)CC1	2	4.3	19	.	6%
COc1cccc2cc(C(=O)Nc3cc(C)cc(C)c3)/c(=N/NS(=O)(=O)c3ccccc3)oc12	-1	-7.4	.	.	.
CCn1c(O)c(/C=N/n2cnnc2)sc1=S	-1	-0.2	2	-31	0%
COc1ccc(NC(=O)c2c(N)cnn2C)cc1	-2	-1.8	.	.	.
Cc1ccc(C(=O)CSc2nc3c([nH]2)c(=O)n(C)c(=O)n3C)cc1	-2	-6.8	12	.	4%
CCOC(=O)CSc1n[nH]c(NC(=O)c2cccc(C(F)(F)F)c2)n1	2	50*	2	-40	-3%
Cc1cc(Cc2ccc(N)c(C)c2)ccc1N	-8	-1.8	.	.	0%
CCC[N+]12CCC(CC1)C(C(O)(c1ccccc1)c1ccccc1)C2 (stereo not given)	-8	-0.5	.	.	-3%
CC(=O)c1cccc(NC(=O)COC(=O)[C@@H](NC(=O)OCc2ccccc2)C(C)C)c1	2	3.5	1	-16	3%
COc1ccccc1C(=O)Nc1ccc2c(c1)nc(CCNC(=O)c1ccccc1)n2C	-3	-1.0	.	.	-3%
CCOC(=O)Cc1csc(NC(=O)CCN2C(=O)c3ccccc3C2=O)n1	7	4.2	4	-34	1%
Oc1ccc(Br)cc1/C=N/N1CCN(Cc2ccccc2)CC1	-4	2.5	0	-18	6%
O=C1c2cccnc2C(O)N1Cc1cccs1 (stereo not given)	-8	-0.4	6	-31	-11%
Cc1cccc2sc(NC(=O)[C@H](C)N3C(=O)C4CC=CCC4C3=O)nc12 (stereo not given in full)	3	1.3	.	.	-3%
CC(C)(C)c1ccc(C2C3=C(CCCC3=O)NC3=C2C(=O)c2ccccc23)cc1 (stereo not given)	98	.	-33	-28	69%
Cc1cc2c(c(C)nn2-c2ccccc2)c(=O)o1	10	0.4	-8	-34	3%
COc1ccc(NC(=O)Nc2cccc(C(=O)N3CCOCC3)c2)cc1OC	48	.	-6	8	-2%
CN(CC(=O)Nc1ccc(F)cc1)C(=O)COC(=O)COc1ccc(C#N)cc1	2	-0.2	.	.	.
COc1ccc(C(=O)CSc2nc(C)cc(=O)[nH]2)cc1	-9	-0.1	7	-41	-7%
CCCCCCc1c(C)c2ccc(OCC(=O)N[C@@H](Cc3ccccc3)C(=O)O)cc2oc1=O	6	12	.	.	.
Cc1sc2nc(SCC(=O)NCc3ccco3)[nH]c(=O)c2c1C	-1	.	-3	-25	-2%	Arbovirus inh repeat=-6
N#CC1(C#N)C(c2ccccc2)OC23CCCCC2C1(C#N)C(=N)O3 (stereo not given)	6	-311	-3	-10	4%
Cc1cc(Oc2ccc(C(C)(C)C)cc2)nc(N2CCOCC2)n1	6	1.0	-28	3	16%
O=C(CN1CCc2ccccc2C1)Nc1ccccc1F	11	1.9	.	.	.
Cc1ccccc1Nc1cc(C(=O)NCC2CCCO2)c2ccccc2n1 (stereo not given)	-12	2.0	.	.	6%
COc1ccccc1-c1nc(C#N)c(N2CCN(C(c3ccccc3)c3ccccc3)CC2)o1	-4	-3.1	2	-30	-12%
O=C(Nc1ccc(C(=O)N2CCOCC2)cc1)c1ccccc1[N+](=O)[O-]	2	-2.7	.	.	.
O=C1Cc2ccccc2Sc2cc(OCCCN3CCCCC3)ccc21	-3	1.2	-10	-7	15%
CC(=O)N/C(=C/c1ccc(OS(=O)(=O)c2ccc(C)cc2)cc1)C(=O)NCCCO	5	0.4	.	.	-9%

A portion from the list above, as a working copy:
SMILES	Mtb betalactam	RecA splice inh	Arbovirus inh	YopH inh	Mtb growth	others
COc1ccccc1-c1nc(C#N)c(N2CCN(C(c3ccccc3)c3ccccc3)CC2)o1	-4	-3.1	2	-30	-12%
O=C(Nc1ccc(C(=O)N2CCOCC2)cc1)c1ccccc1[N+](=O)[O-]	2	-2.7	.	.	.
O=C1Cc2ccccc2Sc2cc(OCCCN3CCCCC3)ccc21	-3	1.2	-10	-7	15%
CC(=O)N/C(=C/c1ccc(OS(=O)(=O)c2ccc(C)cc2)cc1)C(=O)NCCCO	5	0.4	.	.	-9%

Continuation:
SMILES	Mtb betalactam	RecA splice inh	Arbovirus inh	YopH inh	Mtb growth	others
CN(C)CCN(Cc1ccccc1)c1nccc(N(C)C)c1C#N	5	1.3	-9	-7	-6%
Cc1ccccc1OCCC(=O)OCC(=O)Nc1cc(S(=O)(=O)N2CCOCC2)ccc1Cl	3	4.1	17	.	-9%
CCn1nc(NS(=O)(=O)c2ccccc2)c2cc3ccccc3nc21	0	-0.4	.	.	.
Nc1nonc1-n1nnc(C(=O)N/N=C/c2c(Cl)cccc2Cl)c1CN1CCOCC1	3	-1.7	.	.	.
N#Cc1ccc(-c2ccco2)nc1SCC(=O)c1ccc(Cl)cc1	5	2.0	3	-11	-3%
O=C(CSc1nnc(CNc2ccc(F)cc2)n1CC1CCCO1)Nc1ccccc1 (stereo not given)	-10	-0.2	-4	4	-1%
COc1cccc(C(=O)NCc2ccc(N3CCN(C(=O)OC(C)(C)C)CC3)cc2)c1	1	-1.1	5	-13	-6%
Cn1cnc2c1c(=O)n(Cc1ccccc1C#N)c(=O)n2C	0	-5.2	.	.	.
c1ccc(CN2CCN(C3CCCSc4ccccc43)CC2)cc1 (stereo not given)	-12	3.2	.	.	.
Cc1ccc(-c2nn(-c3ccccc3)cc2/C=N/NC(=O)c2ccc3c(c2)OCO3)cc1	47	1.4	-16	-23	-1%
Cc1cc(Br)ccc1NC(=O)c1cnc(N2CCN(c3ccccn3)CC2)c2ccccc12	90	-2.2	-5	.	.
Cc1ccc(C)c(C(C)NC(=O)c2ccc(Br)o2)c1 (stereo not given)	-2	2.8	-1	.	-2%
COc1ccccc1/C=C/C=C1N=C(/C=C/c2ccc(Cl)cc2)OC/1=O	99	2.6	35*	-15	29%
CCOC1(OCC)N=C(N)C2(C#N)C(c3ccc(NC(C)=O)cc3)C12C#N (stereo not given)	3	-1.2	0	-13	-5%
COc1ccccc1/C=C/C(=O)Nc1cccc(S(=O)(=O)NC2=NCCCCC2)c1	-3	3.2	-10	.	-6%
Cc1cccc(NC(=O)c2cc(=O)n(Cc3ccccc3)c(=O)[nH]2)c1	2	1.8	-9	.	3%
CC(C)(C)c1[nH]c2ccccc2c1/C=N/O	34	.	15	3	6%
COc1cccc(NC(=O)Cn2nnc(C(=O)Nc3ccccc3)c2N)c1	-14	2.5	-1	-36	-6%
CCCCCCC1CC(C)(C(=O)CNc2nncs2)OC1=O (stereo not given)	0	-0.4	4	-21	1%
Cn1ncc(Br)c1NC(=O)Nc1ccc(Cl)cc1	-5	-1.0	.	.	.
CCN1C(=O)C2C(c3ccccc3F)NC(Cc3ccc(O)cc3)(C(=O)OC)C2C1=O (stereo not given)	-10	5.0	5	-22	1%
OC(COc1ccccc1)Cn1c2ccccc2c2ccccc21 (stereo not given)	28	15	-45	-49	42%
CCCCOC(=O)C1Cc2ccccc2C(=O)O1 (stereo not given)	-3	1.1	-2	11	-3%
CCOc1ccc(C2=Cc3cc(OC)c(OC)cc3C(=C(Cl)Cl)O2)cc1	.	.	-3	-3	-6%
O=C(CN1C2=NCCCN2c2ccccc21)c1ccc([N+](=O)[O-])cc1	1	-4.3	-12	.	-3%
COc1ccc(C2=NS(=O)(=O)N(C)C(C(=O)Nc3cc(C)ccc3O)=C2)cc1OC	-2	0.3	.	.	.
CCN1C(=O)[C@H]2[C@@H](c3ccc(OC)cc3)N3C(=O)CN(CC4CC4)C(=O)[C@@]3(C)[C@H]2C1=O	-6	0.8	.	.	.
Cc1ccc2c(c1)c(C1=c3ccccc3=NC1=O)c(O)n2C	99	0.7	.	.	.
O=C(Nc1ccc2nsnc2c1)C1CC1	4	3.1	-7	.	-1%
C/C(CCc1ccccc1)=N/NC(=O)C(=O)NC(C)c1ccccc1 (stereo not given)	-1	-2.2	5	.	-10%

Sorted by molecular weight (low to high): part of the list above.
SMILES	Mtb betalactam	RecA splice inh	Arbovirus inh	YopH inh	Mtb growth	others
O=C(Nc1ccc2nsnc2c1)C1CC1	4	3.1	-7	.	-1%
CCCCOC(=O)C1Cc2ccccc2C(=O)O1 (stereo not given)	-3	1.1	-2	11	-3%
OC(COc1ccccc1)Cn1c2ccccc2c2ccccc21 (stereo not given)	28	15	-45	-49	42%
O=C(CN1C2=NCCCN2c2ccccc21)c1ccc([N+](=O)[O-])cc1	1	-4.3	-12	.	-3%
CCOc1ccc(C2=Cc3cc(OC)c(OC)cc3C(=C(Cl)Cl)O2)cc1	.	.	-3	-3	-6%

Structures above that have a CF3 group, in the order listed:
SMILES	Mtb betalactam	RecA splice inh	Arbovirus inh	YopH inh	Mtb growth	others
O=C(NCc1cc(C(F)(F)F)cc(C(F)(F)F)c1)C1CC(c2ccc(C(F)(F)F)cc2)=NO1 (stereo not given)	1	-4.1	.	.	-3%
Nc1cc(C(F)(F)F)ccc1-n1cccc1	-1	-1.0	0	.	-5%
CCc1cccc(CC)c1NC(=O)COn1nnc2ccc(C(F)(F)F)cc21	7	-1.9	0	-23	-7%
CCOC(=O)CSc1n[nH]c(NC(=O)c2cccc(C(F)(F)F)c2)n1	2	50*	2	-40	-3%

The list goes on.
SMILES	Mtb betalactam	RecA splice inh	Arbovirus inh	YopH inh	Mtb growth	others
CCOC(=O)C1(CCOc2ccccc2)CCN(Cc2cc(OC)c(O)c(OC)c2)CC1	4	-2.8	.	.	.
CCc1c(C)nc2c(OC)cccc2c1SCCC(=O)O	-2	2.0	5	-34	-2%
CCC(=O)Nc1ccc(NC(=O)/C=C/c2ccc(Cl)cc2)cc1	10	-0.5	-3	-34	-16%
CN(CC(=O)Nc1ccccc1Sc1ccccc1)C1CCCCC1	2	23	-10	.	2%
CCOc1ccccc1NC(=O)CSc1nnc(-c2ccncc2)o1	4	-0.4	.	.	.
O=C(NCc1cccs1)C1CCC(CNS(=O)(=O)c2cccs2)CC1 (stereo not given)	-2	-2.9	-2	-5	6%
COc1ccc(/C=C2\SC(=N)N(c3ccc(F)cc3)C2=O)cc1	-1	5.6	-10	.	8%
CC(C)(C)c1ccc(-n2nc(C#N)c(Cl)cc2=O)cc1	.	93*	-29	.	?
CS(=O)(=O)N1CCN(c2ccc(NC(=O)c3ccc(-c4ccc(Cl)cc4)o3)cc2)CC1	2	0.8	-3	-20	4%

Not all compounds are listed (hit frequency here may not be typical).
